RE007 growth inh – less growth of the S. pombe RE007 Vpr strain; S. pombe RE007 Vpr strain, BacTiter-Glo ATP luminescence, 24 h; control for the full effect not named in the record; Potency, µM (series often up to 92.2 µM), for the others: at the top dose activity change, negative = less growth; actives 0.21% (n = 360,000); active = well fitted falling curve with a large enough effect; inconclusive = small, poorly fitted or top-dose-only effect; inactive = no such curve, though single readings can be large or run the other way;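 also: % is scaled to controls: 0 for no effect and ±100 for the full control effect; nearly all actives have a fitted effect of over 50% in size; the assay follows cell death caused by Vpr and the record does not say whether a fall means rescue or toxicity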
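Fission yeast strain RE007, carrying one chromosomally integrated HIV-1 vpr copy, was seeded at OD 0.01 in PMG+AL medium with 23 nL pinned compound. After 24 h at 30 °C and 99% humidity, viability was read by BacTiter-Glo luminescence.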
LASV entry inh – blocks Lassa virus binding to or entry into cells. Potency, µM (series often up to 37.9 µM), for inactives: at the highest dose activity change, negative = inhibition, hits mostly inhibitors. actives 1.2% (n = 300,000). Lassa virus pseudotype entry inhibition, cell reporter; control for the full effect not named in the record; active means well fitted inhibition curve with a large enough effect; inconclusive means small, poorly fitted or top-dose-only effect, or effect the other way; inactive means flat fitted curve, though single readings scatter; tested in HEK293 cells; also: % is scaled to controls: 0 for no effect and ±100 for the full control effect; nearly all actives have a fitted effect of over 50% in size; luciferase read-out
SARS PLpro yeast – blocks SARS-CoV papain-like protease in a yeast assay. S. cerevisiae expressing SARS-CoV PLpro, growth rescue; control for the full effect not named in the record. Potency, µM (top dose mostly 32.9 µM), inactives show at the top dose activity, positive = growth rescue. actives 0.19% (n = 330,000); active means well fitted rising curve with a large enough effect; inconclusive means small, poorly fitted or top-dose-only effect; inactive means no such curve, though single readings can be large or run the other way; also: 0% is about no effect; nearly all actives have a fitted effect of over 55% in size; growth read by luminescence after 48 h
Marburg entry inh – inhibitors of Marburg virus binding or cell entry | Marburg virus pseudotyped entry inhibition, cell reporter; control for the full effect not named in the record; about a third of the inactives were read at about 46 µM | Potency, µM (highest dose often 37.8 µM), for the others: top-dose activity change, negative = inhibition, hits mostly inhibitors | actives 1.8% (n = 300,000) | AID 540276; active = well fitted inhibition curve with a large enough effect; inconclusive = small, poorly fitted or top-dose-only effect, or effect the other way; inactive = flat fitted curve, though single readings scatter; tested in HEK293 cells; about a fifth of its hits are not listed in these tables; also: % is scaled to controls: 0 for no effect and ±100 for the full control effect; luciferase read-out
Cruzain Triton – blocks cruzain activity in presence of Triton detergent; actives 0.43% (n = 200,000); P25779; Potency, µM, for inactives: max response, negative = inhibition, actives largely listed as inhibitors; AID 1478; purified cruzain, Z-FR-AMC fluorescence, 0.01% Triton;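 also: plate controls were neutral wells for no effect and buffer without enzyme for full effect; nearly all actives have a fitted effect of over 40% in size; top concentration of the series not given in the record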
Target sequence (P25779 123-467 limits assumed): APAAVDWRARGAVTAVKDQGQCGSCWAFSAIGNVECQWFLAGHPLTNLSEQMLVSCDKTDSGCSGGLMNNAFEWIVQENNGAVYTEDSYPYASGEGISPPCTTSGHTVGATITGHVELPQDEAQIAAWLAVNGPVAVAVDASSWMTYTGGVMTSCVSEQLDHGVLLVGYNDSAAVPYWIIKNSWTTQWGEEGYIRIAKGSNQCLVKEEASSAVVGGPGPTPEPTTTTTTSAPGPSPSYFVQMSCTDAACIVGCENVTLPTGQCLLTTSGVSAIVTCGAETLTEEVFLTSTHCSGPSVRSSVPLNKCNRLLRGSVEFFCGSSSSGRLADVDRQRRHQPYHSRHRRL
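Sodium acetate buffer (100 mM, pH 5.5) containing 5 mM DTT and 0.01% Triton X-100 hosted 1.5 nM cruzain and test compound for 15 min at room temperature. Cleavage of 2 uM Z-FR-AMC was then tracked by fluorescence.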
Cruzain inh noDet – inhibitors of Trypanosoma cruzi cruzain without detergent; P25779; purified cruzain, Z-FR-AMC fluorescence, no detergent; Potency, µM, for inactives: max response, negative = inhibition, usual class: inhibitors; actives 2.3% (n = 200,000); AID 1476;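 also: plate controls were enzyme without inhibitor for no effect and buffer without enzyme for full effect; nearly all actives have a fitted effect of over 40% in size; top concentration of the series not given in the record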
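Purified cruzain at 1.5 nM, pre-incubated 15 min with compound at room temperature in 100 mM sodium acetate pH 5.5, 5 mM DTT, 0.00005% Triton X-100. Reaction started with 2 uM Z-FR-AMC; AMC fluorescence increase over 60 s gives rate.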
NS1 function inh – blocks influenza NS1 protein function; actives 0.4% (n = 270,000); S. cerevisiae slowed by influenza A NS1, growth recovery by OD600; Potency, µM (top dose mostly 46.1 µM), without a hit: top-dose activity, positive = more growth; active means well fitted rising curve with a large enough effect; inconclusive means small, poorly fitted or top-dose-only effect; inactive means no such curve, though single readings can be large or run the other way; also: nearly all actives have a fitted effect of over 50% in size
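A cell-based growth assay was used: compounds that relieve NS1-induced slow growth of budding yeast raise OD600. Assay medium was yeast nitrogen base with ammonium sulphate and -URA supplement, pH 6.0, with 2% galactose.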
2A StopGo – FMDV 2A StopGo reporter, luciferase signal. human cells with a luciferase reporter of 2A StopGo recoding; control for the full effect not named in the record. actives 1.2% (n = 410,000). AID 1159524. Potency, µM (doses to about 57.9 µM), for inactives: at the highest dose signal change, negative = less light; active = well fitted falling curve with a large enough effect; inconclusive = small, poorly fitted or top-dose-only effect; inactive = no such curve, though single readings can be large or run the other way; tested in HEK293T cells; also: % is scaled to controls: 0 for no effect and ±100 for the full control effect; nearly all actives have a fitted effect of over 45% in size; luciferase light after 4 h
* marks the source's active call; other numbers are inactive results; u = inconclusive; x = no result given; [ ] = dose if it differs, or a comment. Unless noted, calls follow the shape of the dose curve; as a rule, active = well fitted curve in the direction sought with a large enough effect; inconclusive = small, poorly fitted or top-dose-only effect, or another doubt; inactive = no such curve, though single readings can be large; an effect the other way counts as inactive or inconclusive. Potency is read from the fitted curve at half-maximal effect.

(1) CCOc1cc(-c2nc(-c3ccccc3)c(-c3cc([N+](=O)[O-])ccc3C)[nH]2)ccc1O
(2) CCOc1ccc(C(=O)Nc2ncn[nH]2)cc1
(3) CCCN(CCC)c1ccc(CC(=O)NC(C)Cc2ccccc2)cc1 (stereo not given)
(4) c1ccc(-c2c[nH]c3[n+]2CCCCC3)cc1
(5) O=C1OC(c2ccc(O)cc2)(c2ccccc2O)c2ccccc21 (stereo not given)
(6) COCCNC(=O)C(=O)Nc1cc2c3c(c1)CC(=O)N3CCC2
(7) C/C=C/COC(=O)c1[nH]c2c(c1C)C(=O)CC(c1ccc(N(C)C)cc1)C2 (stereo not given)
(8) CCC(CC)N1CCN(C(=O)c2cccc(Cl)c2)CC1

assay / entry,1,2,3,4,5,6,7,8
RE007 growth inh,-2%,-4%,4%,-17%,14%,-5%,8%,-5%
LASV entry inh,9%,x,23%,8%,18%,x,x,18%[46.1 µM]
SARS PLpro yeast,x,5%,10%,12%,x,-2%,-16%,-7%
Marburg entry inh,u,x,14%,-3%,2%,x,x,u
Cruzain Triton,4.5%,x,-5.8%,1.9%,x,x,-2.9%,x
Cruzain inh noDet,-16%,x,3%,-4%,x,x,32µM*,x
NS1 function inh,3%,25%,-24%,9%,x,18%,13µM*,-4%
2A StopGo,u,29%,-22%,0%,23%,-7%,-21%,-6%

(9) Cc1cc(OCC(=O)Nc2ccc3c(c2)OCCO3)cc(C)c1Cl
(10) CCCn1c(=O)c(C(=O)Nc2cnccn2)c(O)c2ccccc21
(11) O=C(COC(=O)c1ccccc1OCC(=O)Nc1ccc(Br)cc1)Nc1ccccc1
(12) O=C(c1ccc(N2CCOCC2)c([N+](=O)[O-])c1)N1CCN(c2ccccc2)CC1
(13) S=C(NCc1ccco1)N1CCN(C/C=C/c2ccccc2)CC1
(14) CCCNS(=O)(=O)c1ccc2c(c1)n(C)c(=O)n2C
(15) COc1cc(NC(=O)CCc2ccccc2)c(C(=O)O)cc1OC
(16) N#Cc1ccc(Nc2ccccc2)c(N)c1

assay / entry,9,10,11,12,13,14,15,16
RE007 growth inh,-25%,x,5%,6%,11%,-6%,3%,-8%
LASV entry inh,6%,x,-19%,u,1%[46.1 µM],1%,6%,-13%
SARS PLpro yeast,-11%,-4%,-2%,x,-2%,-1%,-8%,-7%
Marburg entry inh,u,0%,u,-23%[46.1 µM],u,-16%[46.1 µM],3%,2%
Cruzain Triton,-7.4%,2.4%,1.4%,x,x,x,4.0%,-3.2%
Cruzain inh noDet,-6%,-12%,13µM*,x,x,x,3%,-2%
NS1 function inh,1%,-94%,-6%,x,3%,3%,u,7%
2A StopGo,-9%,x,-5%,-13%,-12%,68%[activator],-4%,-15%

(17) Cc1ccc2nc(Cl)cc(=O)n2c1
(18) OC(c1cccc(Cl)c1)(c1cccc(Cl)c1)C1CN2CCC1CC2 (stereo not given)
(19) O=C(CNC(=O)c1ccc(Br)o1)NCc1ccc(F)cc1
(20) O=C(c1ccco1)N1CCN(C(=O)c2ccccc2OCc2ccccc2)CC1
(21) COc1ccc(Cc2nnc(N/N=C/c3ccc(C)o3)[nH]c2=O)cc1
(22) CCc1cc(=O)oc2c(C)c(OC(C)C(=O)N3CCC[C@@H]3C(=O)O)ccc12 (stereo not given in full)
(23) CCOc1ccccc1NC(=O)c1cc2ccc3cccnc3c2[nH]1
(24) CCOc1ccc(N2C(=O)C(=O)/C(=C(/O)c3ccccc3)C2c2ccccc2[N+](=O)[O-])cc1 (stereo not given)

assay / entry,17,18,19,20,21,22,23,24
RE007 growth inh,1%,-8%,3%,2%,12%,-1%,x,-1%
LASV entry inh,12%,u,-17%[46.1 µM],u,u,x,u,3%
SARS PLpro yeast,x,1%,-2%,2%,0%,-5%,x,0%
Marburg entry inh,14%,u,u,3%,-13%,x,x,u
Cruzain Triton,x,x,x,x,x,x,-0.7%,x
Cruzain inh noDet,x,x,x,x,x,x,3%,x
NS1 function inh,x,4%,-1%,x,x,5%,x,9%
2A StopGo,-8%,-15%,19%,0%,-6%,-5%,40%[activator],-19%

(25) COC(=O)c1c(-c2ccccc2)noc1C
(26) Cc1cc(C)nc(NC(=O)c2cccc([N+](=O)[O-])c2)c1
(27) COc1cc(SC)ccc1C(=O)N(CC(=O)Nc1ccccc1Br)Cc1ccco1
(28) Cc1cccc(C(=O)N2CCCC(N3CCN(c4ccccc4F)CC3)C2)n1 (stereo not given)
(29) O=C(O)CCCCCNCc1c(Cl)cccc1Cl
(30) Cc1cccc(N2CCN(C(=O)CCn3c(=O)[nH]c4ccsc4c3=O)CC2C)c1 (stereo not given)
(31) Cc1ccc(CNC(=O)CSCc2nc(-c3ccc(Cl)cc3)oc2C)cc1
(32) CNC(=O)/C(C#N)=C/c1cccc(Oc2ccccc2)c1

assay / entry,25,26,27,28,29,30,31,32
RE007 growth inh,-5%,-26%,-18%,1%,3%,0%,x,18µM*
LASV entry inh,7%,20%,-13%,-10%,x,-16%[46.1 µM],10%[46.1 µM],-21%
SARS PLpro yeast,-1%,-8%,-16%,4%,1%,-2%,x,-5%
Marburg entry inh,1%[46.1 µM],7%,-30%[46.1 µM],-8%,x,u,18%[46.1 µM],-2%[46.1 µM]
Cruzain Triton,x,-2.0%,x,x,x,x,1.8%,x
Cruzain inh noDet,x,12%,x,x,x,x,5%,x
NS1 function inh,3%,-6%,x,13%,3%,-5%,x,-119%
2A StopGo,3%,-15%,3%,2%,-20%,-28%,-22%,-16%

(33) COc1cccc(OC)c1Nc1nc(C)nc2c1nnn2Cc1ccccc1Cl
(34) Cc1cccc2sc(N(CCCN(C)C)C(=O)c3sc4ccccc4c3Cl)nc12
(35) CC(=O)c1sc(NCc2ccc(C)cc2)nc1C
(36) O=c1[nH]c2cc3c(cc2cc1CN(Cc1cccnc1)Cc1nnnn1Cc1ccco1)OCCO3
(37) CSc1nc2c(c(=O)[nH]1)C(c1ccc(Br)cc1)CC(=O)N2 (stereo not given)
(38) Cc1ccc2scc(N3CCN(C)CC3)c(=O)c2c1
(39) COc1ccc(N2CCN(C(=O)Cn3nnc(-c4ccc(OC)c(OC)c4)n3)CC2)cc1
(40) COc1ccc(CN2CCC(c3nc4ccc(Cl)cc4[nH]3)CC2)cc1

assay / entry,33,34,35,36,37,38,39,40
RE007 growth inh,0%,-2%,-6%,-14%,16%,x,6%,-2%
LASV entry inh,2%,-19%,u,-27%,-10%,12%[46.1 µM],-15%,x
SARS PLpro yeast,-2%,-15%,-2%,0%,3%,x,3%,3%
Marburg entry inh,0%[46.1 µM],u,10µM*,-26%,11%[46.1 µM],x,-1%,x
Cruzain Triton,x,-8.7%,x,-8.0%,x,-9.0%,5.0%,x
Cruzain inh noDet,x,-13%,x,-2%,x,-7%,12%,x
NS1 function inh,3%,6%,-16%,18%,x,x,-10%,2%
2A StopGo,-14%,u,33%[activator],20%,-6%,0%,-29%,-26%

In the list so far, these contain a COOH group:
(15) COc1cc(NC(=O)CCc2ccccc2)c(C(=O)O)cc1OC
(22) CCc1cc(=O)oc2c(C)c(OC(C)C(=O)N3CCC[C@@H]3C(=O)O)ccc12 (stereo not given in full)
(29) O=C(O)CCCCCNCc1c(Cl)cccc1Cl

assay / entry,15,22,29
RE007 growth inh,3%,-1%,3%
LASV entry inh,6%,x,x
SARS PLpro yeast,-8%,-5%,1%
Marburg entry inh,3%,x,x
Cruzain Triton,4.0%,x,x
Cruzain inh noDet,3%,x,x
NS1 function inh,u,5%,3%
2A StopGo,-4%,-5%,-20%

(cont.)
(41) CCc1ccccc1NC(=O)c1ccc2nc(CCc3ccccc3)oc2c1
(42) CC(C(=O)Nc1ccc2c(c1)OCCO2)c1ccc([N+](=O)[O-])cc1 (stereo not given)
(43) COc1ccc(OCc2cc(C(=O)N(C)CC3CCCCO3)no2)c(Cl)c1 (stereo not given)
(44) O=C(CSc1ncn[nH]1)Nc1ccc(S(=O)(=O)N2CCCC2)cc1
(45) O=C(O/N=C\c1ccc(N2CCCCC2)c([N+](=O)[O-])c1)c1c(F)cccc1F
(46) CN1C(=O)c2ccc(NC(=O)C3CCCCC3)cc2C1=O
(47) Cc1cccc(C(=O)Nc2nnc(SCC(=O)NCc3ccco3)s2)c1
(48) CCC1(CC)NC(=O)N(CC(=O)OCC(=O)Nc2ccc(C(F)(F)F)cc2)C1=O

assay / entry,41,42,43,44,45,46,47,48
RE007 growth inh,x,6%,-17%,18%,-13%,8%,-1%,16%
LASV entry inh,-1%[46.1 µM],20%,-1%,21%,8%,-31%,-20%[46.1 µM],-12%
SARS PLpro yeast,x,12%,-2%,-4%,4%,-6%,x,1%
Marburg entry inh,x,-14%,28%,1%[46.1 µM],5%,22%,u,3%[46.1 µM]
Cruzain Triton,-4.2%,-4.7%,x,1.9%,2.6%,-0.1%,x,-2.6%
Cruzain inh noDet,1%,9%,x,7%,3%,-18%,x,-5%
NS1 function inh,x,0%,-23%,11%,2%,-54%,x,-2%
2A StopGo,-3%,-24%,41%[activator],-13%,0%,x,19%,-4%

(49) C=C(C)CNC(=S)NNC(=O)CCn1c2cc(Cl)ccc2c2ccc(Cl)cc21
(50) CCOC(=O)c1c(NC(=O)CNCC(O)CO)sc(C)c1C (stereo not given)
(51) COc1ccc(OC)c(NC(=O)CN(c2ccc(C)cc2)S(=O)(=O)c2c(C)noc2C)c1
(52) COc1ccc(/C=N/NC(=O)CSc2ccccn2)cc1OC

assay / entry,49,50,51,52
RE007 growth inh,x,-2%,0%,30%
LASV entry inh,0%,0%,-3%,-4%
SARS PLpro yeast,19%,-9%,-3%,0%
Marburg entry inh,u,1%,-28%[46.1 µM],18%[46.1 µM]
Cruzain Triton,-4.0%,3.2%,-1.3%,x
Cruzain inh noDet,7%,4%,12%,x
NS1 function inh,u,-8%,-53%,10%
2A StopGo,-12%,-3%,-28%,43%[activator]
